# From PubChem BioAssay
# Tg IFNy HTS: T. gondii growth inhibition under IFN-gamma | Toxoplasma gondii growth in IFN-gamma-treated host cells; hits give low values; reference of the scale not given here | activity change, negative = inhibition, %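 (about 20 µM by stock and volumes)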 | 3.8% of 69,000 active;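 active means below -70%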;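 further: host cells are HeLa cells infected with Toxoplasma gondii; parasite growth read as luciferase light; one replicate is shown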
# * hit, by the source's call; i = inactive; & = joins results of further samples.
SMILES,Tg IFNy HTS
CN(C)CC#Cc1ccc([C@@H]2[C@H](CO)N3CCCCN(C(=O)Cc4ccccn4)C[C@@H]23)cc1,3
Cc1oc(-c2ccccc2)nc1CN1C(=O)CN=C(c2ccc(F)cc2)c2c1sc1c2CCC1,4
CCCn1c(C)c(C(=O)c2cccc3ccccc23)c2ccccc21,33
c1cnc(N2CCN(CC3CC3)c3ncccc3C2)nc1,2
O=C(O)[C@H]1[C@H](CO)[C@H]2Cn3c(ccc(-c4ccncc4)c3=O)[C@@H]1N2S(=O)(=O)c1ccccc1F,-1
N#CC(/C=C/c1ccccc1)N1CCOCC1 (stereo not drawn),25
CN(C(=O)Cc1ccccc1)C(CN1CCCC1)c1ccccc1 (stereo not drawn),-3
O=C(Nc1cc(F)ccc1F)c1cc2cccnc2n(Cc2ccc(F)cc2)c1=O,-27
Cc1ccc(CN2C[C@@H]3OCCN(c4ncccn4)[C@H]3C2)s1,-66
Cc1cc(CN2C[C@H]3CCCO[C@H]3[C@H](NS(C)(=O)=O)C2)no1,-4
CC1CCN(CC(C)(C)CN2C3CCC2CC(O)(c2ccc(F)cc2)C3)CC1 (stereo not drawn),8
Cc1ccc(-c2nc3ccc(C)cn3c2CC(=O)N(C)C)cc1,3
CN1CCC2(c3cccc(O)c3)Cc3nc4ccccc4cc3CC2C1 (stereo not drawn),1
CSc1ccc(C(=O)N[C@H]2c3ccccc3[C@@H]3CNC[C@H]32)s1,-1
O=C(NC1CCCC1)c1cc2cccnc2n(Cc2ccccc2F)c1=O,59
COc1ccc(-c2ccccc2N2CCNCC2)c2ccc(C)nc12,-3
CC1=CC(=O)c2c(O)cccc2C1=O,8
C[C@H](N)Cc1cnc[nH]1,15
CCCN(CCC)C1Cc2cc(OC)c(OC)cc2C1,15&-8
FC(F)(F)CCN1C[C@H]2CCC[C@@H](CNc3ncccn3)[C@@H]2C1,12

# Another view of some results above.
N#CC(/C=C/c1ccccc1)N1CCOCC1 (stereo not drawn)
  Tg IFNy HTS = 25

CC1=CC(=O)c2c(O)cccc2C1=O
  Tg IFNy HTS = 8

Cc1cc(CN2C[C@H]3CCCO[C@H]3[C@H](NS(C)(=O)=O)C2)no1
  Tg IFNy HTS = -4

# Of the compounds above, these contain a halogen:
SMILES,Tg IFNy HTS
Cc1oc(-c2ccccc2)nc1CN1C(=O)CN=C(c2ccc(F)cc2)c2c1sc1c2CCC1,4
O=C(O)[C@H]1[C@H](CO)[C@H]2Cn3c(ccc(-c4ccncc4)c3=O)[C@@H]1N2S(=O)(=O)c1ccccc1F,-1
O=C(Nc1cc(F)ccc1F)c1cc2cccnc2n(Cc2ccc(F)cc2)c1=O,-27
CC1CCN(CC(C)(C)CN2C3CCC2CC(O)(c2ccc(F)cc2)C3)CC1 (stereo not drawn),8
O=C(NC1CCCC1)c1cc2cccnc2n(Cc2ccccc2F)c1=O,59
FC(F)(F)CCN1C[C@H]2CCC[C@@H](CNc3ncccn3)[C@@H]2C1,12

# Next results:
SMILES,Tg IFNy HTS
O=C(NCC1CCCO1)c1cc2cccnc2n(Cc2ccc(F)cc2)c1=O (stereo not drawn),-34
CCN1C[C@H]2[C@H](OC)CCN(C(=O)c3cc(C4CC4)on3)[C@H]2C1,-1
CC1Cc2cc(C(O)CN3CC=C(c4ccc(F)cc4)CC3)ccc2O1 (stereo not drawn),61
CCN(CC)Cc1nccn1-c1ccc([N+](=O)[O-])cc1C(=O)c1ccccc1Cl,-15
Cl/C=C\C[N+]12CN3CN(CN(C3)C1)C2,12
CNC(=O)C1=NOC2(CCN(Cc3ccccn3)C2)C1 (stereo not drawn),-45
O=C(Nc1ccc2c(c1)OCO2)c1cc2cccnc2n(Cc2ccccc2F)c1=O,159
NCCc1n[nH]c(=O)n1C1CCCCC1,1
CN1c2ccc(Br)cc2[C@@H]2NCC[C@@H]2[C@@H]1CO,7
COc1ccc(C)cc1NC(=O)c1cc2cccnc2n(Cc2ccccc2)c1=O,28
COC1COC2(CCN(Cc3cnn(C)c3)C2)C1 (stereo not drawn),74
CCOCC12CCCOC1CCN(Cc1ccncc1)C2 (stereo not drawn),7
CS(=O)(=O)N1CCc2c(CNc3ncccn3)cncc2C1,-1
CCCn1cc(C(=O)CC(=O)OC)cn1,92
CN(C)C(=O)CN1CCC2C1CC(=O)N2Cc1cccnc1 (stereo not drawn),6
COCCN(Cc1sccc1C)C(=O)c1c(C)n(C)c2ccc(OC)cc12,-30
Cc1oc2c(c1CC(=O)N(C)CCN(C)C)C(=O)CC(C)(C)C2,7
CCC(O)Cn1cc(C2=CCN(Cc3cc(=O)[nH]c(C)n3)CC2)cn1 (stereo not drawn),-7
c1ccc(CN2CCOCC3(CCN(c4ccccn4)C3)C2)nc1 (stereo not drawn),-4
CCOc1ccccc1NC(=O)c1cc2cccnc2n(Cc2ccccc2)c1=O,22

# The final five entries of the part before lead into the next.
SMILES,Tg IFNy HTS
COCCN(Cc1sccc1C)C(=O)c1c(C)n(C)c2ccc(OC)cc12,-30
Cc1oc2c(c1CC(=O)N(C)CCN(C)C)C(=O)CC(C)(C)C2,7
CCC(O)Cn1cc(C2=CCN(Cc3cc(=O)[nH]c(C)n3)CC2)cn1 (stereo not drawn),-7
c1ccc(CN2CCOCC3(CCN(c4ccccn4)C3)C2)nc1 (stereo not drawn),-4
CCOc1ccccc1NC(=O)c1cc2cccnc2n(Cc2ccccc2)c1=O,22
O=C(Nc1cccc(Cl)c1)c1cc2cccnc2n(Cc2ccccc2F)c1=O,77
CNC(=O)Oc1c(Cl)cc(Cl)cc1Cl,20
CN(C)C(=O)CN1CC2CONC2C1 (stereo not drawn),-7
C[C@@H]([C@H](O)c1ccccc1)N(C)C,4&7
CN(C)CC#Cc1ccc([C@@H]2[C@H]3CN(C(=O)Cc4ccccn4)CCCCN3[C@H]2CO)cc1,11
O=C(NC1CCCC1)N1CC[C@H]2[C@@H]1CCN2Cc1ccccn1,301
COCCN1CCC12CCN(C(=O)Cc1cccs1)C2 (stereo not drawn),173
CCN1CC[C@@H]2C[C@H](C(=O)Nc3cccnc3)O[C@@H]2C1,-25
C[C@@]1(CO)[C@H](O)CC[C@@]2(C)[C@H]1CC[C@H]1C[C@@H]3C[C@@]12CC[C@]3(O)CO,-86*
c1ccc2sc(C3(N4CCCCC4)CCCCC3)cc2c1,-56&10
CC(C)(C)[C@]1(O)C[C@@H]2OC(=O)C[C@@]23C(=O)O[C@@H]2OC(=O)[C@H](O)C213 (stereo partly drawn),7
CN(C)Cc1c[nH]c2ccccc12,-4&7
Cc1ccc(CNC(=O)c2cc3cccnc3n(Cc3ccc(Cl)cc3)c2=O)cc1,30
COc1cccc(CN2CCC3(CC(NS(=O)(=O)C4CC4)C3)C2)n1 (stereo not drawn),-2
CC(C)=Cc1nc(-c2c(C)ncc3c2CCNC3)no1,-10
Cc1cnc(N2CCOC3(COCCN(CCN(C)C)C3)C2)nc1 (stereo not drawn),6
Cc1cccc(CN2CCC3(CC(NS(=O)(=O)C4CC4)C3)C2)n1 (stereo not drawn),-9
CCN(CC)CCCNC(=O)c1cc2cccnc2n(Cc2ccc(F)cc2)c1=O,8
CN(C)CCCNC(=O)c1cc2cccnc2n(Cc2ccc(F)cc2)c1=O,-60
OC[C@@H]1[C@@H]2c3ccccc3NC[C@@H]2N1Cc1cccnc1,-3
COc1ccc(CN2CCCC23CCCN(C(=O)Cc2ccc(Cl)cc2)C3)cc1F (stereo not drawn),85
CN1CCC2(CCN(CCN)CC2)C1,-10
C[C@H](CO)N1C[C@H](C)[C@@H](CN(C)C(=O)Oc2ccc3ccccc3c2)OCc2cn(nn2)CCCC1=O,234
O=C(NCc1ccccc1Cl)c1cc2cccnc2n(Cc2ccccc2)c1=O,-3
O=S(=O)(C1CC1)N1CC[C@H]2[C@@H]1CCN2Cc1ccccn1,-2
O=C1Nc2ccccc2C12CCN(Cc1noc(C3CCCO3)n1)CC2 (stereo not drawn),127
C=CCN1CCN(Cc2csc(C)n2)Cc2cccnc21,67
CCCC(=O)OCC[N+](C)(C)C,7
COCCN1CCO[C@H]2CN(C(=O)Cc3ccccn3)CC[C@@H]2C1,-12
Cc1noc(C)c1CN1CC2CC(C(=O)NC(C)C)C(C1)O2 (stereo not drawn),-4
O=c1c2ccccc2nc(CSc2ncnc3ccccc23)n1-c1ccccc1F,4
CC(C)NC(=O)c1cc(N2CCN3CCCC3C2)ccn1 (stereo not drawn),5
C[C@]12CC/C(=N\OCCN)C[C@@H]1C(=O)C[C@@H]1[C@@H]2CC[C@]2(C)C(=O)CC[C@@H]12,-34
CCOC(=O)c1cc2c(cn1)[nH]c1ccccc12,42&116
CSc1ccccc1C(=O)C1CCCN(Cc2cc(C(C)C)n[nH]2)C1 (stereo not drawn),9
O=C(O)[C@@H]1[C@@H](CO)[C@@H]2Cn3c(ccc(-c4ccncc4)c3=O)[C@H]1N2S(=O)(=O)c1ccccc1F,-1
O=C(O)[C@@H]1[C@@H](CO)[C@@H]2Cn3c(ccc(C4=CCCCC4)c3=O)[C@H]1N2C(=O)Cc1ccccn1,3
COc1ccc(OC)c(NC(=O)c2nc(C)n(C3CCN(C)CC3)c2C)c1,i
c1cc(C2NCCc3[nH]cnc32)c2cc[nH]c2c1 (stereo not drawn),-12
COc1cc2c(cc1-c1cc3cc4ccoc4cc3oc1=O)OCO2,26
O=C(CNC1Cc2ccccc2C1)Nc1ccc(Cl)cc1C(=O)c1ccccc1Cl,18
Cn1cc(CN2CC[C@H]3C[C@H](c4ccncn4)O[C@H]3C2)cn1,-1
CN1[C@@H]2CNc3ccccc3[C@@H]2[C@@H]1CO,-2
O=C(Nc1ccc2c(c1)OCO2)c1cc2cccnc2n(Cc2ccc(F)cc2)c1=O,233
Cc1cccc(NC(=O)c2cc3cccnc3n(Cc3ccccc3F)c2=O)c1,10
Cc1ccc2[nH]cc(CN3C[C@H](N(C)C)C[C@H]3CO)c2c1,0
S=C(NC1CCCCC1)N1CCC(c2cnc[nH]2)CC1,8&10
CCN1CCOCC2(CCCN(c3ncc(C)cn3)C2)C1 (stereo not drawn),-36
c1cn(CC2CCC3NCCOC23)cn1 (stereo not drawn),-23
OC[C@@H]1CCCN2CCCC[C@H]12,15
COc1ccc(C(=O)O)cc1OC,-10
CCCc1cnc(N2CCN3CCN(C)CC3C2)nc1 (stereo not drawn),11
CC(=O)N1CCC2(CC1)c1cccn1-c1ccccc1CN2C(=O)Nc1ccc(C)cc1C,-69
CN1C(=O)[C@@H](NC(=O)c2cc3ccccc3[nH]2)N=C(c2ccccc2)c2ccccc21,-70
Cc1cnc(N2C[C@H]3CN(Cc4nccs4)C[C@H]3C2)nc1,15
COCCNC(=O)C[C@H]1C[C@@H]2CN(Cc3ccncc3)C[C@H]2O1,-3
COc1cccc(-c2ccc([C@H]3[C@@H](CO)N4CCCCN(C(=O)Cc5ccncc5)C[C@H]34)cc2)c1,-23
COC(=O)c1cc2c(cn1)[nH]c1ccccc12,39
C[C@H]1CN([C@@H](C)CO)C(=O)CCCn2cc(nn2)CO[C@@H]1CN(C)C(=O)Oc1ccc2ccccc2c1,272
O=c1[nH]oc2c1CCNC2,4

# Additional records
SMILES,Tg IFNy HTS
CCCN(CCC)C1CCc2cccc(O)c2C1 (stereo not drawn),16&38
CCSc1ncc(CN2C[C@H]3CC=CC[C@H]3C2)cn1,-11
NCCc1ccccn1,24&13
CCN1C[C@H]2[C@H](OC)CCN(C(=O)Cc3ccc(OC)cc3)[C@H]2C1,1
COc1cc(N2CCC3(CC2)COCCN3C)ncn1,6
CCCN1CC2CCC1C2Oc1cccnc1 (stereo not drawn),-2
Cc1ccc(CN2CCCC3(CC(Oc4cccnc4)CO3)C2)o1 (stereo not drawn),3
CCCCc1ccc(NC(=O)c2cc3cccnc3n(Cc3ccc(Cl)cc3)c2=O)cc1,22

# 5 entries from above, arranged by formula weight, highest first.
SMILES,Tg IFNy HTS
O=C(O)[C@@H]1[C@@H](CO)[C@@H]2Cn3c(ccc(-c4ccncc4)c3=O)[C@H]1N2S(=O)(=O)c1ccccc1F,-1
CC1CCN(CC(C)(C)CN2C3CCC2CC(O)(c2ccc(F)cc2)C3)CC1 (stereo not drawn),8
COCCNC(=O)C[C@H]1C[C@@H]2CN(Cc3ccncc3)C[C@H]2O1,-3
CCOCC12CCCOC1CCN(Cc1ccncc1)C2 (stereo not drawn),7
c1cc(C2NCCc3[nH]cnc32)c2cc[nH]c2c1 (stereo not drawn),-12

# Some of the compounds tested (hit frequency here may not be typical).
